Bioassay records deposited in PubChem by National Center for Advancing Translational Sciences (NCATS).
VACV mCherry inh – qHTS for Stage-Specific Inhibitors of Vaccinia Orthopoxvirus: mCherry Reporter Primary qHTS; Vaccinia virus mCherry reporter infection, fluorescence; about a quarter of the inactives have no number; Potency, µM (titrated, usually from 36.5 µM), without a hit: top-dose activity change, negative = inhibition, most hits filed as inhibitors; actives 0.63% (n = 310,000); active = well fitted inhibition curve with a large enough effect; inconclusive = small, poorly fitted or top-dose-only effect; inactive = no such curve, though single readings can be large or run the other way; tested in A549 cells; also: nearly all actives have a fitted effect of over 35% in size; inactives centre near -10
VACV Venus inh – qHTS for Stage-Specific Inhibitors of Vaccinia Orthopoxvirus: Venus Reporter Primary qHTS; Potency, µM (highest dose often 36.5 µM), for the others: at the top dose activity change, negative = inhibition, most hits filed as inhibitors; Vaccinia virus Venus reporter expression, fluorescence; actives 0.46% (n = 330,000); active means well fitted inhibition curve with a large enough effect; inconclusive means small, poorly fitted or top-dose-only effect; inactive means no such curve, though single readings can be large or run the other way; tested in A549 cells; also: nearly all actives have a fitted effect of over 30% in size; inactives centre near -10
* = called active by the depositor; i = inactive; ? = inconclusive; · = not tested or not shown; & = joins results of further samples; [ ] = another dose, or the depositor's remark. % is scaled to controls: 0 for no effect and ±100 for the full control effect; potency is read from the fitted curve at half-maximal effect.

structure	VACV mCherry inh	VACV Venus inh
CCS(=O)(=O)c1ccc(-c2cccc(NC(=O)c3ccc(Br)o3)c2)nn1	-19%	-3%
O=C(CN1C2=NCCN2c2ccccc21)c1ccc(Br)cc1	·	?
NC(=O)C1CCN(C(=O)CSc2nc3ccccc3o2)CC1	-12%	-4%
Cc1ccc(N/C=C/C(=O)c2sc(-c3ccccc3)nc2C)cc1	-12%	-14%
O=C(CSc1nnc(NC(=O)c2c(F)cccc2F)s1)Nc1ccccc1F	-4%	-4%
CC(=O)c1ccc(NC(=O)CC2Sc3ccccc3NC2=O)cc1 (configuration not stated)	-9%	-2%
COc1cccc(C(=O)Nc2ccc3nc(SCC(=O)N(C)c4ccccc4)sc3c2)c1	?	?
CCCC(CCC)C(=O)NC1CC(=O)N(c2ccc3c(c2)OCCO3)C1 (configuration not stated)	0%	-7%
COC(=O)C1(S(=O)(=O)c2ccc(C)cc2)CCOCC1	?	-21%
O=C(COc1ccc(Cl)cc1)c1ccc(O)cc1O	?	-7%
CCCNC(=O)C[C@H]1C[C@H]2c3cc(NC(=O)Nc4ccc(F)cc4)ccc3O[C@H]2[C@@H](CO)O1	i	-11%
CC(=O)c1cc2c(cc1NC(=O)CCNC(=O)c1ccccc1Cl)OCO2	-12%[1.46 µM]	-22%
O=C(C1CCC(CNS(=O)(=O)c2cccs2)CC1)N1CCN(c2ccc(Cl)cc2)CC1 (configuration not stated)	?	?
COCCc1nn2c(=O)cc(COC(=O)c3ccco3)nc2s1	-11%	-6%
O=C(COC(=O)C1CC(=O)N(Cc2ccccc2)C1)c1ccc(Br)cc1 (configuration not stated)	i	-7%
O=C(c1ccc(Cl)cc1)C1CCCN(C2CCSCC2)C1 (configuration not stated)	-12%	-11%
CN(C)C(=O)N1CCC(C(=O)NCc2ccccc2Cl)CC1	-3%	-13%
CCn1c(SCC(=O)N/N=C/C=C\c2ccco2)nc2ccccc21	-20%	-8%
CC1CCCCN1S(=O)(=O)c1ccc(N(C(=O)c2cnccn2)C(C(=O)NC2CCCC2)c2cccs2)cc1 (configuration not stated)	i	-15%
CCN1CCN(CC(=O)Nc2ccc(C(C)=O)cc2)CC1	-5%	-15%
O=C(O)c1ccccc1C(=O)c1ccc2c(c1)N(Cc1ccc(Cl)c(Cl)c1)C(=O)CO2	-8%	5%
CC(=O)c1ccc(OC(C)C)c(CC(C(N)=O)C(N)=O)c1	-15%	-7%
CC1CC(C)CN(C(=O)CSCC(=O)Nc2nc(-c3cccs3)cs2)C1 (configuration not stated)	?	-22%
O=C1c2ccccc2C(=O)N1CCC1=CCCCC1	-16%	-6%
O=[N+]([O-])c1ccc(Sc2n[nH]c(-c3ccc(Cl)cc3Cl)n2)nc1	?	?
O=C(Nc1ccccc1C(F)(F)F)c1ncoc1-c1ccco1	i	-12%
CN(C)S(=O)(=O)NCc1ccc2c(c1)OCO2	-10%	-4%
NC(=S)N/N=C/c1ccc(Br)o1	?	?
Cc1ccccc1NC(=O)c1cc(-c2ccco2)nc2ccccc12	i	-9%
CC(C)(O)C(=O)Nc1ccc([N+](=O)[O-])c(C(F)(F)F)c1	-1%	-19%

Of the compounds above, these have two or more sulfur atoms:
structure	VACV mCherry inh	VACV Venus inh
O=C(CSc1nnc(NC(=O)c2c(F)cccc2F)s1)Nc1ccccc1F	-4%	-4%
COc1cccc(C(=O)Nc2ccc3nc(SCC(=O)N(C)c4ccccc4)sc3c2)c1	?	?
O=C(C1CCC(CNS(=O)(=O)c2cccs2)CC1)N1CCN(c2ccc(Cl)cc2)CC1 (configuration not stated)	?	?
CC1CCCCN1S(=O)(=O)c1ccc(N(C(=O)c2cnccn2)C(C(=O)NC2CCCC2)c2cccs2)cc1 (configuration not stated)	i	-15%
CC1CC(C)CN(C(=O)CSCC(=O)Nc2nc(-c3cccs3)cs2)C1 (configuration not stated)	?	-22%

New compounds follow:
structure	VACV mCherry inh	VACV Venus inh
CNc1cccc(-c2ccc(C(C)=O)s2)n1	23%	-8%
Cc1cc(-c2ccc(C)c(S(=O)(=O)N3CCC(C)CC3)c2)on1	-19%	-18%
N#C/C(=N\Nc1c(Cl)cccc1Cl)C(=O)NN	-6%	-7%
CCOC(=O)c1c(-c2ccccc2)oc2ccc(O)c(CN3CCOCC3)c12	-22%	?
COc1cc(NC(=O)COc2cc(C)cc3oc(=O)c(C)c(C)c23)cc(OC)c1OC	i[7.34 µM]	0%[7.34 µM]
O=[n+]1c2c(n([O-])c3c1CCC3)CCCC2	-13%	-4%
COc1ccc(C2CC(c3cccc(F)c3)=NN2c2ccc(S(N)(=O)=O)cc2)cc1 (configuration not stated)	?	-29%
CCCc1c(C)nc2ccccc2c1SCCC#N	-11%	-30%
O=C(CSc1oc(-c2ccccc2)nc1S(=O)(=O)c1ccc(Br)cc1)NC1CCCCC1	-10%	-9%
O=C(/C=C/c1ccco1)N(Cc1ccccc1)C1CCS(=O)(=O)C1 (configuration not stated)	-4%	-2%
Cc1cc(=O)n2[nH]c(C)cc2n1	13%	-6%
CN(C)c1cccc2c(C#N)ccc(N(C)C)c12	-13%	-7%
S=C1NC(c2cccs2)=CC(c2ccc(Br)cc2)N1 (configuration not stated)	-23%	-2%
Cc1nonc1OCCCNc1ccc([N+](=O)[O-])cc1Cl	-11%	-6%
C=C(C)c1cccc(C(C)(C)NC(=O)N2CCC(C(N)=O)CC2)c1	i	-8%
Cc1ccc(CC(NC(=O)C2CCCCC2)C(=O)O)cc1 (configuration not stated)	-12%	0%
CSCCC(NC(=O)c1ccccc1)C(=O)OCC(=O)N(C)CCC#N (configuration not stated)	i	-15%
CC(=O)c1c[nH]c(C(=O)NC2CCCCCC2)c1	-5%	0%
Cc1ncc(C(O)c2ccccc2)n1Cc1ccccc1 (configuration not stated)	i	-16%
O=C(NCCC1CCCCN1S(=O)(=O)c1ccc(F)cc1)C(=O)NCc1ccccn1 (configuration not stated)	-1%	-8%
CC1=C(C(=O)N(C)C)CC(CC(=O)NCC2CCCCC2)C(=O)N1Cc1ccccc1 (configuration not stated)	i	-19%
CCCN(CC(=O)Nc1ccccc1C)C(=O)COc1c(Cl)cccc1Cl	-8%	-10%
CC(CCc1ccccc1)NC(=O)COC(=O)c1cccnc1Cl (configuration not stated)	-2%	-3%
CN(C)c1cccc2c(/C=N/O)ccc(N(C)C)c12	-29%	0%
O=C(COC(=O)CCC1CCCC1)Nc1ccc(F)cc1	-18%	-8%
CCCC(CCC)C(=O)O	-12%	-12%&-14%&-4%
C#CCN(C[C@@H]1[C@@H](OC(=O)NCc2ccco2)[C@@H](OC(=O)NCc2ccco2)CN(C(=O)OC(C)C)N1C(=O)OC(C)C)S(=O)(=O)c1ccc(C)cc1	?	-29%
CCOc1ccc(CNC(=O)c2oc3c(c2C)-c2nn(Cc4cccc(Cl)c4)cc2CC3)cc1	-22%	-23%
O=C(COC(=O)c1cc[n+]([O-])cc1)Nc1ccc(SC(F)F)cc1	i	-9%
COC(=O)CCCC(=O)N1CCC(n2nccc2NC(=O)CCOc2ccccc2)CC1	i	-16%
Cc1cc(C)c(S(=O)(=O)Nc2ccnc(-c3cccnc3)n2)c(C)c1	-25%	-7%
Cc1cc(C(=O)NNC(=S)NCc2ccco2)nn1C	-6%	-12%
Cc1nc2cc(NC(=O)Nc3ccccc3Cl)ccc2n1C	-3%	1%
CN(C)c1ccnc2sc(C(=O)c3ccc(Br)cc3)c(N)c12	i	-14%
CCOCc1cc(CN2CCN(c3cccc(C(F)(F)F)c3)CC2)c(O)c2ncccc12	?	-19%[7.34 µM]
CC(=O)c1cccc(NC(=O)CN2C(=O)c3cccnc3Oc3ccc(Cl)cc32)c1	-28%	-19%
O=C(NCc1ccccn1)c1ccc(Cl)c(S(=O)(=O)N2CCOCC2)c1	-12%	-4%
COC(=O)CCCC1=CC2=CC(=O)C(C)(OC(=O)c3cccs3)C(=O)C2=CN1c1ccccc1 (configuration not stated)	-11%	-7%
CCOC(=O)c1cc(-c2ccccc2)n(CCC(=O)Nc2ccc(C)cc2Cl)c1C	i	-18%
COc1ccc2cc(C3=CC(=O)CC(C)(C)C3=O)ccc2c1	-15%	-26%
Cc1ccc(OCC(=O)Nc2cnn(CCCC(=O)O)c2)c([N+](=O)[O-])c1	i	-11%
COc1ccc(C(=O)N2c3ccccc3C(C)(c3ccc(Cl)cc3)CC2(C)C)cc1 (configuration not stated)	-17%	-15%
O=C(Cn1ccc(C(F)(F)F)n1)N/N=C/c1ccc(N2CCOCC2)cc1	-7%	-11%
O=C(COc1ccc(-c2nnco2)cc1)N1CCOCC1	-9%	-6%
N#C/C(=C\c1ccc(F)cc1)C(=O)NC1CCS(=O)(=O)C1 (configuration not stated)	13%	28%
CC(C)CN1CCC1(C)C(=O)Nc1cccc(C#N)c1 (configuration not stated)	49%[activator]	-3%
Cn1ncc(C#N)c1NC(=O)C1CC(c2ccc(Cl)cc2)=NO1 (configuration not stated)	-13%	-3%
Cn1cc(CN2CCCC(CNS(=O)(=O)c3cccc4cccnc34)C2)cn1 (configuration not stated)	i	-11%
Cc1ccc(C(=O)Nc2ccc(N3CCN(S(C)(=O)=O)CC3)cc2)cc1	-21%	-17%
O=C(NCCc1ccccc1)C1CCCN1S(=O)(=O)c1ccc(Cl)cc1 (configuration not stated)	-1%	-10%
CCn1c(=N)c(C(=O)NC2CCCCC2)cc2c(=O)n3cccc(C)c3nc21	-3%	-7%
Cc1ccc([C@@H]2C[C@H]3[C@@H](CN2S(=O)(=O)c2ccc(C)cc2)C(=O)C[C@@H](c2cccc(Cl)c2)N3S(=O)(=O)c2ccc(C)cc2)cc1	-7%	-13%
COc1ccc(-c2noc(C3CCCN(C(=O)c4cccc(F)c4)C3)n2)cc1 (configuration not stated)	i	-17%
COc1cc(OC)cc(-c2c(-c3cccs3)c3cc(-c4ccn[nH]4)ccc3n2C)c1	-18%	?
COc1ccc(Cl)cc1N(C)c1nc(N2CCN(S(=O)(=O)c3ccc(C)cc3)CC2)c2ccccc2n1	i	-7%
COCCNC(=O)Cn1c(=O)n(Cc2ccc(C(=O)NCCc3ccc(OC)c(OC)c3)cc2)c(=O)c2ccccc21	-8%	0%&-2%
Cc1c(Cl)cccc1NC(=S)NCCC(C)C	-22%	-28%
Cc1onc(-c2ccccc2)c1C(=O)N1CCC(C)(C(=O)NS(=O)(=O)C2CC2)C1 (configuration not stated)	4%	9%
CCCn1c(=O)c2[nH]c(-c3ccc(OCC(=O)Nc4ccc(C#N)cc4)cc3)nc2n(CCC)c1=O	-4%	-6%
COc1ccc(OC)c(C2CC(=O)Nc3c2c(=O)n(C)c2ncnn32)c1 (configuration not stated)	-5%	-7%

Other entries
structure	VACV mCherry inh	VACV Venus inh
C[C@@H](NS(=O)(=O)c1cc(Cl)ccc1F)[C@H](O)c1ccccc1	-4%	-19%
COc1ccc(C)cc1NC(=O)c1sc2nc(C)nc(N3CCOCC3)c2c1C	i	-3%
CCC(=O)N1CCc2cc(S(=O)(=O)NC(Cc3ccccc3)C(=O)NCc3cccc(OC)c3)ccc21 (configuration not stated)	-10%	-11%
COc1ccc(/C=N\NS(=O)(=O)c2ccc(Br)cc2)cc1COc1ccccc1[N+](=O)[O-]	-7%	2%
O=C(NC1CCCC1)c1cccc2c1C(=O)c1ccc(/C=C/c3ccccc3)cc1S2(=O)=O	-20%	?
O=c1ccc2cc(S(=O)(=O)N3CCN(c4ccccc4F)CC3)ccc2o1	-6%	1%
Cc1ccccc1NC(=O)N1CCc2cc(S(=O)(=O)N3CCC(C)CC3)ccc21	-8%	-5%
CNS(=O)(=O)c1cccc(C(=O)OCC(=O)c2cc(C)n(CC3CCCO3)c2C)c1 (configuration not stated)	7%	-16%
COc1ccc(CCN2CC(C(=O)N(C)Cc3ccccn3)CCC2=O)cc1 (configuration not stated)	i	-4%
O=C(CCCOc1ccccc1)NCCc1nc2ccccc2[nH]1	-16%	0%
CC(Oc1ccccc1)C(=O)N1CCN=C1SCc1cccc(F)c1 (configuration not stated)	-16%	-3%
COc1ccccc1C(=O)NNC(=O)c1cc2ccccc2cc1O	?	?

Already shown: five of the compounds above.
structure	VACV mCherry inh	VACV Venus inh
CNS(=O)(=O)c1cccc(C(=O)OCC(=O)c2cc(C)n(CC3CCCO3)c2C)c1 (configuration not stated)	7%	-16%
COc1ccc(CCN2CC(C(=O)N(C)Cc3ccccn3)CCC2=O)cc1 (configuration not stated)	i	-4%
O=C(CCCOc1ccccc1)NCCc1nc2ccccc2[nH]1	-16%	0%
CC(Oc1ccccc1)C(=O)N1CCN=C1SCc1cccc(F)c1 (configuration not stated)	-16%	-3%
COc1ccccc1C(=O)NNC(=O)c1cc2ccccc2cc1O	?	?
